Compound activity from PubChem BioAssay.
HSV replic up – HSV replication enhancement; HSV replication augmentation in cells, fold increase; maximum fold increase; 0.005% of 220,000 active;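 active = peak rise of 1.5-fold or more in the series; inconclusive = self-fluorescent or not available for retest; tested in PC3 cells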;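 also: first round at 10 µM; read as green reporter fluorescence; hits show the peak of a series up to 25 µM; 1 = signal of infected wells without compound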
GALR2 ag – GALR2 (human) receptor agonism | O43603 | GALR2-expressing cells, agonist activation read-out | activation, %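 (tested at 5 µM)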 | 0.48% of 140,000 active;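 active = above mean plus 3 SD of all compounds, about 5% in these data, not always enough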;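 also: 0% = vehicle buffer wells and 100% = reference agonist at full effect; tested in CHO reporter cells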
RGS16-Gao – RGS16-Galphao interaction regulator (human); O15492+P09471; bead-based flow cytometry RGS16-Galphao binding, fluorescence; actives lie on both sides; binding response (% of control), % at 10 µM; 0.38% of 220,000 active;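 active = below 25% or above 175%, edge rows of some plates excepted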;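 also: Galphao activated by GDP with aluminum fluoride before binding; 100% = wells without compound and 0% = beads without RGS; some results beyond the cut were filed as inactive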
INS promoter inh – TRM-6 insulin promoter activity inhibition | 0.9% of 130,000 active | TRM-6 cells (human fetal islet line), insulin promoter-eGFP reporter, imaging; reporter expression induced with tamoxifen | inhibition, % at 2 µM;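 active = inhibition above the mean plus 3 SD, with well images judged a real hit on visual review, cut at about 60% in these data, passing the limit was not always enough; inconclusive = inhibition over the cutoff but images rejected on review; inactive = inhibition not above the cutoff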
PKD1 kinase inh – inhibitors of human PKD1 kinase. AID 797. 0.056% of 200,000 active. inhibition, %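 (about 10 µM by stock and volumes)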. PKD1 kinase fluorescence polarization assay. Q15139;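 active = inhibition of 50% or more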;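 also: controls were vehicle for no effect and a reference inhibitor for full effect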
Target sequence (Q15139 whole entry, looked up): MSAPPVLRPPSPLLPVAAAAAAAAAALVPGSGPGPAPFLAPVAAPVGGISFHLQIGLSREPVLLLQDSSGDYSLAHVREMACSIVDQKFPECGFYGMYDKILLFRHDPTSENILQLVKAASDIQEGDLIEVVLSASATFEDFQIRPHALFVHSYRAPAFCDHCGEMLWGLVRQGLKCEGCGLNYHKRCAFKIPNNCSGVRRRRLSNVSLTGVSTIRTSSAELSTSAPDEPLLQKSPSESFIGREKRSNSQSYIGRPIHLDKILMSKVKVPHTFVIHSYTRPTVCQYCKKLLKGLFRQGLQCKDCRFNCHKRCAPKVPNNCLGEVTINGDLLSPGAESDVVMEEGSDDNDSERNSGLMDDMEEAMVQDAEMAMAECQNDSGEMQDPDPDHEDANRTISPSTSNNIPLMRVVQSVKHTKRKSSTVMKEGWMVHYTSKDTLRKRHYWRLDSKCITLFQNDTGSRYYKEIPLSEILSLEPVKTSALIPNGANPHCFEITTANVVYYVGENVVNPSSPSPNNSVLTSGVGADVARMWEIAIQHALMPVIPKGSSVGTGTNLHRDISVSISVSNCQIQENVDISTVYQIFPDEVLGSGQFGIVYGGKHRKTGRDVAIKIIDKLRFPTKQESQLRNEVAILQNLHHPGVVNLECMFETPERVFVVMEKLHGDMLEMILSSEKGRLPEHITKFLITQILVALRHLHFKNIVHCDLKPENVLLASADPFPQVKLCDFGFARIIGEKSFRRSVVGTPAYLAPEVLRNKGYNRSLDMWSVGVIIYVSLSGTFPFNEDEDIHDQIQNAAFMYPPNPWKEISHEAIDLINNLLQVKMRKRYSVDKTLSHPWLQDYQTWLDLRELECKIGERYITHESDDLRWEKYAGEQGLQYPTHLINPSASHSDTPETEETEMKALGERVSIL
INS promoter inh cell count – recorded beside INS promoter inh, whose call it bears; normalized cell count, %; measured here: cell count, toxicity; reference of the scale not given here;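 cells exposed to compound for 48 h; stained nuclei by imaging scaled within each plate; lower means fewer cells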
HSV replic up primary fold – recorded beside HSV replic up, whose call it bears; fold increase; compound at 10 µM; measured here: primary screen fold increase 10 uM; tested in PC3 cells;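 GFP signal in the first replicate; 1 = infected wells without compound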
The depositor's hits bear a star. Rows are unselected (roughly 1.3% active in at least one column).

How did COc1ccc(CNc2nc3ccccc3n2Cc2ccc(Cl)cc2)cc1OC do in these assays?
HSV replic up: inactive; GALR2 ag: -0.1; RGS16-Gao: 110.5; INS promoter inh: -7.1; PKD1 kinase inh: -10.9; INS promoter inh cell count: 114.2; HSV replic up primary fold: 0.92

Results for CC(Oc1ccc(Cl)cc1)/C(N)=N/O (centres undefined) ?
HSV replic up: inactive; RGS16-Gao: 102.4; PKD1 kinase inh: 2.8; HSV replic up primary fold: 0.95

Results for CC(=O)N(CCc1ccccc1C)Cc1cc2cc3c(cc2[nH]c1=O)OCO3 ?
HSV replic up: inactive; GALR2 ag: -1.8; RGS16-Gao: 116.6; INS promoter inh: 36.4; PKD1 kinase inh: -11.2; INS promoter inh cell count: 203.3; HSV replic up primary fold: 1.1

Results for CC1CN(C(=O)N2c3ccccc3Sc3ccccc32)C(C)CC1=O (centres undefined) ?
HSV replic up: inactive; GALR2 ag: -0.2; RGS16-Gao: 100.3; INS promoter inh: 0.0; PKD1 kinase inh: -7.4; INS promoter inh cell count: 77.3; HSV replic up primary fold: 1.01

Results for COC(=O)c1cccc(OCC(O)Cn2cnc3cc(C)c(C)cc32)c1 (centres undefined) ?
HSV replic up: inactive; GALR2 ag: -0.5; RGS16-Gao: 97.0; INS promoter inh: 64.3; PKD1 kinase inh: -1.1; INS promoter inh cell count: 29.8; HSV replic up primary fold: 0.72

Results for COc1ccc(CC(=O)NC(C)c2nnc(SCC(=O)Nc3ccccc3F)n2C)cc1 (centres undefined) ?
HSV replic up: inactive; RGS16-Gao: 100.6; INS promoter inh: -45.0; PKD1 kinase inh: -3.9; INS promoter inh cell count: 92.1; HSV replic up primary fold: 1.03

Results for COc1nccnc1NS(=O)(=O)c1ccc(NC(=S)NC(=O)/C=C/c2ccc(F)cc2)cc1 ?
HSV replic up: inactive; GALR2 ag: -0.8; RGS16-Gao: 102.9; INS promoter inh: 25.0; PKD1 kinase inh: -3.8; INS promoter inh cell count: 97.5; HSV replic up primary fold: 0.93

What do the screens show for `O=C(CN1CCOCC1)Nc1cccc(Cl)c1Cl`?
HSV replic up: inactive; GALR2 ag: -2.2; RGS16-Gao: 102.3; PKD1 kinase inh: -4.0; HSV replic up primary fold: 0.99

Results for O=C(Nc1nnc(-c2cccs2)o1)c1cccc(Oc2ccccc2)c1 ?
HSV replic up: inactive; GALR2 ag: -1.9; RGS16-Gao: 103.1; PKD1 kinase inh: -5.8; HSV replic up primary fold: 0.89

Results for CCN1CCCC1CNC(=O)c1csc2c1CCCC2 (centres undefined) ?
HSV replic up: inactive; GALR2 ag: 0.1; RGS16-Gao: 93.3; PKD1 kinase inh: -1.0; HSV replic up primary fold: 1.04

Results for CC(=O)Nc1ccc(OCCC[n+]2ccccc2)cc1 ?
HSV replic up: inactive; RGS16-Gao: 104.9; PKD1 kinase inh: 1.1; HSV replic up primary fold: 0.92

How did CNC(=O)/C(C#N)=C/c1ccc(-c2nc3ccccc3s2)o1 do in these assays?
HSV replic up: inconclusive; RGS16-Gao: 101.8

Results for O=[N+]([O-])c1ccc(O)c(Nc2ncnc3ccc(Br)cc23)c1 ?
HSV replic up: inactive; RGS16-Gao: 99.9; PKD1 kinase inh: -1.3; HSV replic up primary fold: 0.89

What do the screens show for `Cc1ccc2c(CN3CCN(C(=O)c4ccco4)CC3)cc(=O)oc2c1C`?
HSV replic up: inactive; RGS16-Gao: 97.5; PKD1 kinase inh: -6.0; HSV replic up primary fold: 0.84

How did CC1=Nc2ccccc2/C1=C/c1c(N)n2c(S(=O)(=O)C(C)C)nsc2nc1=O do in these assays?
HSV replic up: inactive; RGS16-Gao: 98.2; INS promoter inh: 50.0; PKD1 kinase inh: 4.2; INS promoter inh cell count: 89.4; HSV replic up primary fold: 0.96

Results for Cc1nn2c(-c3cccc(NC(=O)CSc4nc5ccccc5o4)c3)nnc2c2ccccc12 ?
HSV replic up: inconclusive; GALR2 ag: -0.8; RGS16-Gao: 82.6; INS promoter inh: -9.9; PKD1 kinase inh: -3.2; INS promoter inh cell count: 121.5

How did Cc1ccccc1S(=O)(=O)Cc1ccc(C(=O)NCCN2CCCCC2C)o1 (centres undefined) do in these assays?
HSV replic up: inactive; GALR2 ag: -0.4; RGS16-Gao: 110.9; INS promoter inh: -114.3; PKD1 kinase inh: -1.6; INS promoter inh cell count: 121.0; HSV replic up primary fold: 0.94

Results for C#CCNC(=O)C1=C[C@@H](c2ccc(C#C)cc2)[C@H](CCCO)[C@@H](OCC)O1 ?
RGS16-Gao: 115.7; PKD1 kinase inh: 1.9

Results for Nc1cccc(-n2nncc2-c2ccc(Cl)cc2)c1 ?
HSV replic up: inactive; GALR2 ag: -2.5; RGS16-Gao: 96.5; PKD1 kinase inh: 13.1; HSV replic up primary fold: 0.96

What do the screens show for `O=C(O)CN1C(=O)NC2(CCOc3ccccc32)C1=O` (centres undefined)?
HSV replic up: inactive; RGS16-Gao: 104.2; HSV replic up primary fold: 0.84

Results for O=C(c1cnn2c(C(F)(F)F)cc(-c3cccs3)nc12)N1CCN(C(c2ccccc2)c2ccccc2)CC1 ?
HSV replic up: inactive; GALR2 ag: -1.9; RGS16-Gao: 107.6; INS promoter inh: 23.8; PKD1 kinase inh: -4.4; INS promoter inh cell count: 122.4; HSV replic up primary fold: 0.9

What do the screens show for `O=C(CCc1nc2ccccc2s1)NCc1ccccc1F`?
HSV replic up: inactive; RGS16-Gao: 97.0; INS promoter inh: -381.8; PKD1 kinase inh: 3.7; INS promoter inh cell count: 87.7; HSV replic up primary fold: 1.08

Results for COc1ccc(-n2c(C)cc(/C=C/c3nc(O)c([N+](=O)[O-])c(=O)[nH]3)c2C)cc1 ?
HSV replic up: inactive; RGS16-Gao: 96.6; PKD1 kinase inh: 5.1; HSV replic up primary fold: 0.98

How did CN(C)/C=C1\N=C(c2ccccc2)OC1=O do in these assays?
HSV replic up: inactive; RGS16-Gao: 99.8; INS promoter inh: -22.2; PKD1 kinase inh: -7.4; INS promoter inh cell count: 114.1; HSV replic up primary fold: 0.91

How did CC(=O)N(c1c(C)n(C)n(-c2ccccc2)c1=O)C1(C(=O)NC2CCCC2)CCCCC1 do in these assays?
HSV replic up: inactive; GALR2 ag: 0.1; RGS16-Gao: 98.8; PKD1 kinase inh: -5.7; HSV replic up primary fold: 0.98

How did CCSc1nnc2c(n1)OC(C)(C)Nc1ccccc1-2 do in these assays?
HSV replic up: inactive; GALR2 ag: -4.1; RGS16-Gao: 100.6; PKD1 kinase inh: 12.6; HSV replic up primary fold: 0.72

How did CCc1cc2ccc(C)cc2nc1SCC(=O)Nc1cc(C)on1 do in these assays?
HSV replic up: inactive; RGS16-Gao: 107.3; PKD1 kinase inh: -8.0; HSV replic up primary fold: 0.93

Results for Cc1sc(-c2cccnc2)nc1OC(=O)C1CC1 ?
HSV replic up: inactive; RGS16-Gao: 95.7; PKD1 kinase inh: -1.8; HSV replic up primary fold: 0.66

Results for O=C(Nc1cccc(C(F)(F)F)c1)c1csc(-c2ccncc2)n1 ?
HSV replic up: inactive; RGS16-Gao: 94.1; PKD1 kinase inh: -5.2; HSV replic up primary fold: 0.96

How did CCCCC1=CC2=C(c3ccco3)C(=O)C(C)(OC(=O)c3ccc(OC)cc3)C(=O)C2=CN1CCc1ccccn1 (centres undefined) do in these assays?
HSV replic up: inactive; RGS16-Gao: 104.4; HSV replic up primary fold: 1.18

For convenience, some entries already given.
Results for O=C(Nc1cccc(C(F)(F)F)c1)c1csc(-c2ccncc2)n1 ?
HSV replic up: inactive; RGS16-Gao: 94.1; PKD1 kinase inh: -5.2; HSV replic up primary fold: 0.96

How did CCCCC1=CC2=C(c3ccco3)C(=O)C(C)(OC(=O)c3ccc(OC)cc3)C(=O)C2=CN1CCc1ccccn1 (centres undefined) do in these assays?
HSV replic up: inactive; RGS16-Gao: 104.4; HSV replic up primary fold: 1.18

The list continues.
What do the screens show for `O=C(NCc1ccccc1Cl)C1CCN(S(=O)(=O)N2CCC3(CC2)OCCO3)CC1`?
GALR2 ag: -2.2; RGS16-Gao: 103.5; INS promoter inh: 3.1; PKD1 kinase inh: -2.9; INS promoter inh cell count: 100.9

What do the screens show for `O=c1oc(-c2ccccc2F)nc2scc(-c3ccccc3)c12`?
HSV replic up: inactive; RGS16-Gao: 99.5; HSV replic up primary fold: 0.91

Results for COc1ccc2[nH]c(=O)c(CNc3ccccc3OC)cc2c1 ?
HSV replic up: inactive; RGS16-Gao: 103.2; HSV replic up primary fold: 0.97

How did CCOC(=O)SC1=N/C(=C\c2ccc(N(C)C)cc2)C(=O)S1 do in these assays?
HSV replic up: inactive; GALR2 ag: -0.8; RGS16-Gao: 101.5; INS promoter inh: -30.6; PKD1 kinase inh: -9.2; INS promoter inh cell count: 297.0; HSV replic up primary fold: 1.22

How did FC(F)(F)c1cc(-c2ccccc2)nc(-n2cc(Cl)cn2)n1 do in these assays?
HSV replic up: inactive; RGS16-Gao: 104.0; INS promoter inh: 20.0; PKD1 kinase inh: -2.2; INS promoter inh cell count: 140.6; HSV replic up primary fold: 0.83

What do the screens show for `CC1(C)Cc2c(C#N)c(NCc3ccco3)nc(-c3ccco3)c2CO1`?
HSV replic up: inactive; GALR2 ag: -2.3; RGS16-Gao: 91.7; INS promoter inh: -39.1; PKD1 kinase inh: -5.0; INS promoter inh cell count: 66.4; HSV replic up primary fold: 0.95

How did CSc1ccc(N2CCN(CCCNC(=O)Nc3ccccc3F)CC2)cc1 do in these assays?
HSV replic up: inactive; GALR2 ag: 0.0; RGS16-Gao: 95.7; INS promoter inh: -103.6; PKD1 kinase inh: -4.5; INS promoter inh cell count: 31.6; HSV replic up primary fold: 0.92

Results for O=C(CCCN1C(=O)c2ccccc2C1=O)Nc1ccc2c(c1)OCCO2 ?
HSV replic up: inactive; RGS16-Gao: 94.4; INS promoter inh: 29.4; PKD1 kinase inh: -1.8; INS promoter inh cell count: 123.7; HSV replic up primary fold: 0.95

How did Clc1ccc(C[n+]2csc3ccccc32)cc1 do in these assays?
HSV replic up: inactive; GALR2 ag: -0.8; RGS16-Gao: 19.1; INS promoter inh: 0.0; PKD1 kinase inh: 4.8; INS promoter inh cell count: 117.7; HSV replic up primary fold: 1.16

How did CCOC(=O)C1(Cc2cccc(OC)c2)CCN(Cc2ccc(C)s2)CC1 do in these assays?
HSV replic up: inactive; RGS16-Gao: 99.7; PKD1 kinase inh: -9.7; HSV replic up primary fold: 0.97

What do the screens show for `COc1ccc(C2=NOC(C(=O)N3CCOCC3)C2)cc1OC` (centres undefined)?
HSV replic up: inactive; GALR2 ag: -1.8; RGS16-Gao: 106.6; INS promoter inh: -28.6; PKD1 kinase inh: -1.7; INS promoter inh cell count: 110.6; HSV replic up primary fold: 1.02

How did CN(C)C(=O)c1cc(Cl)ccc1Sc1cc(Cl)ccc1Cl do in these assays?
HSV replic up: inactive; GALR2 ag: -0.1; RGS16-Gao: 104.8; INS promoter inh: 11.9; PKD1 kinase inh: -0.8; INS promoter inh cell count: 78.1; HSV replic up primary fold: 0.94

How did Cc1ccc(-c2nnn(CC(=O)N(c3ccccc3F)C(C(=O)NC3CCCC3)c3ccco3)n2)o1 (centres undefined) do in these assays?
HSV replic up: inactive; GALR2 ag: 0.2; RGS16-Gao: 96.0; PKD1 kinase inh: -10.4; HSV replic up primary fold: 1.21

What do the screens show for `COc1ccc(N2C(=O)c3ccc(C(=O)OC(C)C)cc3C2=O)cc1`?
HSV replic up: inactive; GALR2 ag: -1.5; RGS16-Gao: 133.7; PKD1 kinase inh: -3.8; HSV replic up primary fold: 1.02

What do the screens show for `CC(C)Sc1nnc(CNC(=O)C23CC4CC(CC(C4)C2)C3)n1Cc1ccccc1`?
GALR2 ag: -1.6; RGS16-Gao: 95.9; PKD1 kinase inh: 2.1

What do the screens show for `Cc1cccc(-c2nc(CS(=O)CC(=O)N3CCc4ccccc4C3)c(C)o2)c1` (centres undefined)?
HSV replic up: inactive; GALR2 ag: -2.5; RGS16-Gao: 109.4; PKD1 kinase inh: -15.2; HSV replic up primary fold: 0.96

Results for O=C(CN1CCCC1)Nc1ccccc1C(=O)c1ccccc1 ?
HSV replic up: inactive; RGS16-Gao: 93.1; HSV replic up primary fold: 0.83

What do the screens show for `CC1CC(C)CN(C(=O)COc2ccc(-c3nnco3)cc2)C1` (centres undefined)?
HSV replic up: inactive; GALR2 ag: -1.0; RGS16-Gao: 108.0; INS promoter inh: -30.0; PKD1 kinase inh: 13.2; INS promoter inh cell count: 91.0; HSV replic up primary fold: 0.83

What do the screens show for `O=C(NNS(=O)(=O)c1ccc2ccccc2c1)NC1CCCCC1`?
HSV replic up: inactive; GALR2 ag: -0.8; RGS16-Gao: 106.7; PKD1 kinase inh: -7.2; HSV replic up primary fold: 0.98
